Bioassay records: PubChem, National Center for Advancing Translational Sciences (NCATS)
VDR inh = inhibitors of human vitamin D receptor | P11473 | VDR-SRC2-3 peptide fluorescence polarization, 2 h | Potency, µM, for the others: max response, negative = inhibition, usual class: inhibitors | hit rate 0.93% among 400,000; active means well fitted inhibition curve with a large enough effect; inconclusive means small, poorly fitted or top-dose-only effect, or another doubt; inactive means no such curve, though single readings can be large or run the other way; further: series mostly up to about 120 µM
Target sequence (P11473 whole entry, looked up): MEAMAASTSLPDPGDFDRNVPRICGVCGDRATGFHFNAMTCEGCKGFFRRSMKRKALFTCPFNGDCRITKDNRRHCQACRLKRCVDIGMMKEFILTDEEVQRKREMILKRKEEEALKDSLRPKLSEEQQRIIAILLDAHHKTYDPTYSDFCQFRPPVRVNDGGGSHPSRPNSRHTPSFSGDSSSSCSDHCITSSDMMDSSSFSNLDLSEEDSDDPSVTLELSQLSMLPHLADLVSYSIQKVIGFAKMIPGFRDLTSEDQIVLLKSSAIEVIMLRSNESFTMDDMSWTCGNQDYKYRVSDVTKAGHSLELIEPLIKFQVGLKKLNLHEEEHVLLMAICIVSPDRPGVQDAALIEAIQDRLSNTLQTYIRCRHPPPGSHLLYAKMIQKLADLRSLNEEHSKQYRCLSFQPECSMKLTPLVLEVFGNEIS
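Compounds are added to VDR with labelled SRC2-3 coactivator peptide and held 2 h at room temperature. Inhibition of the VDR–peptide interaction is then read as a change in fluorescence polarization.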
Active calls of the source: *; ? = inconclusive; & = joins results of further samples. On the % scale 0 is the no-effect control and ±100 the full control effect; potency means the concentration at half of the fitted maximal effect.

SMILES	VDR inh
COc1ccc(Cn2c(=O)[nH]c3cc(OC)c(OC)cc3c2=O)cc1	?
Cc1cccc(C(=O)NNC(=O)c2ccccc2Br)c1	-20%
Cn1c(CCC(=O)Nc2cc(S(C)(=O)=O)ccc2Cl)nc2cc(S(=O)(=O)N3CCOCC3)ccc21	-12%
Nc1c(-c2nc(-c3ccc4c(c3)OCO4)cs2)c2ccccn2c1C(=O)c1ccccc1	4%
COc1ccc(C(=O)NC(=S)NNC(=O)c2ccccc2C)cc1	3%
Cn1c(CCN2CCOCC2)nc2cc(NS(=O)(=O)c3ccccc3)ccc21	-6%
NC(=O)C1CCN(C2=C(NS(=O)(=O)c3ccc(Br)cc3)C(=O)c3ccccc3C2=O)CC1	?
CCc1sc(C(=O)Nc2cc(Cl)ccc2N2CCCCC2)cc1C	1%
CN(CC(=O)Nc1cccc(S(=O)(=O)N(C)C)c1)Cc1ccccc1	-2%
O=C(COc1ccccc1[N+](=O)[O-])Nc1ccccc1N1CCCCC1	-27%
COc1ccc(CCC(C)NCc2cc(OC)cc(OC)c2)cc1 (stereo not drawn)	4%
Nc1nc(NCc2ccc(Cl)cc2Cl)c2[nH]cnc2n1	-12%&-4%
CC1(C)C(=O)NCCN1C(=O)CCC(=O)O	3%
COCCn1c(SCC(=O)N2CCOCC2)nc2ccccc2c1=O	6%
CS(=O)(=O)Nc1ccccc1C(=O)Nc1ccccc1C(=O)N1CCCC1	-8%
CC(=O)c1cn(CCC(C)C)c(=O)[nH]c1=O	-2%
COC(CNC(=O)c1ccc2c(c1)ncn2-c1ccc(F)c(F)c1)OC	-12%
CC(C)c1ccc(NC2CCCN(C(=O)c3cc(C(C)C)nc(N)n3)C2)cc1 (stereo not drawn)	-11%
CC(C)(C)c1cc(N)on1	-13%
Cc1ccc(S(=O)(=O)N(CC(=O)NC2CCCC2)c2cccc(C)c2)cc1	-8%
COCCNC(=O)C(c1ccc(C)o1)N(Cc1cccs1)C(=O)c1snc(C(N)=O)c1N (stereo not drawn)	0%
COc1ccc(C(CC(=O)N2CCCC(C)C2)c2c(OC)cc(OC)c3c(-c4ccccc4)cc(=O)oc23)cc1 (stereo not drawn)	-14%
O=C(NCc1ccc(Cl)cc1)c1ccc(CNc2c(N3CCOCC3)c(=O)c2=O)cc1	-19%
S=c1[nH]nc(-c2ccc(Cl)cc2)n1-c1ccc2c(c1)OCCO2	-9%
COc1ccc(OCC(O)CNS(=O)(=O)c2ccc(C)cc2)cc1 (stereo not drawn)	13%
Cn1c(=O)[nH]c(=O)c2c1nc(N1CCC(Cc3ccccc3)CC1)n2Cc1ccccc1	-11%
COc1ccc(C2CC(c3ccc4ccccc4c3)=NN2C(=O)CNC2CCCCC2)cc1 (stereo not drawn)	3%
CSCCC(=O)N1C(C)CCCC1C(=O)O (stereo not drawn)	-4%
COc1ccc(NC(=O)CN2C(=O)C(c3ccccc3)=NC23CCCCCC3)cc1OC	2%
CC(=O)NS(=O)(=O)c1ccc(NC(=O)C2C3C=CC(C3)C2C(=O)O)cc1 (stereo not drawn)	-8%
CC(=O)c1cccc(NC(=O)C2CCN(c3nnc(-n4cccc4)s3)CC2)c1	-1%
O=C(Nc1cccc(Cl)c1)c1ccc2c(c1)SC1=NS(=O)(=O)CCN12	-3%
CC(C)NC(=O)c1ccc(Cn2c(SCC(N)=O)nc3ccccc3c2=O)cc1	12%
COc1cccc(CNC(=O)C2CCN(C(=O)c3cnn(-c4ccccc4)c3-n3cccc3)CC2)c1	2%
CN1CCC(N2CCCC(C(=O)O)C2)CC1 (stereo not drawn)	-1%
CCCc1cc(=O)n2[nH]c(C)c(-c3ccccc3)c2n1	-10%
CCCN(CCC)C(=O)Cn1c(=O)n(-c2ccc(CC)cc2)c(=O)c2ccc(C(=O)NCCc3ccccc3)cc21	16%
Cc1ccc(CNC(=O)C(C)C2Sc3ccccc3NC2=O)cc1 (stereo not drawn)	-8%
CC1(C)CC(=O)C(N=Nc2cc(Cl)c(Cl)c(Cl)c2)=C(O)C1	4%
CC1(c2ccccc2)CC(C)(C)N(C(=O)CSc2nnc(N)s2)c2ccccc21 (stereo not drawn)	-21%
CS(=O)(=O)N(Cc1ccco1)CC(O)Cn1cc(C=O)c2ccccc21 (stereo not drawn)	-3%
CCC(C)C(NC(=O)OC(C)(C)C)C(=O)NC1COC2CC(n3ccc(=O)[nH]c3=O)OC12 (stereo not drawn)	9%
COc1ccc(N=C(C)C2=C(O)CSC2=O)cc1	-21%
OCCN1CCN(CC/C=C2/c3ccccc3CSc3ccccc32)CC1	3%
O=C(O)COc1ccc(/C=N/NC(=O)COc2nsnc2N2CCOCC2)cc1	0%
Cc1ncc(CN2CCCC(C(=O)Nc3ccc(-c4ccco4)cc3)C2)cn1 (stereo not drawn)	-10%
Cn1nc(Oc2nc(N3CCOCC3)nc(N3CCOCC3)n2)ccc1=O	9%
COc1cccc(C(=O)NCC(c2ccc3c(c2)OCO3)N2CCOCC2)c1 (stereo not drawn)	4%
CCOc1nc(NC(=O)NS(=O)(=O)Oc2cccc(Cl)c2)nc(-c2ccccc2)n1	-12%&4%
Cc1csc(SCC(=O)Nc2ccc3c(c2)OCCO3)n1	1%
CC(=O)N1CCN(CCN=CC2=C(O)CC(c3cccs3)CC2=O)CC1 (stereo not drawn)	-4%
COc1ccc(NC(=O)c2cc3cc(C)ccc3n2C)c(OC)c1	-18%
Clc1ccc(CSc2nnc3c(n2)[nH]c2ccccc23)cc1	-9%
CCCC(c1c(C)n(C)n(-c2ccccc2)c1=O)c1c(C)n(C)n(-c2ccccc2)c1=O	-24%
CC(C)CC1C(C#N)=C(N)Oc2n[nH]c(-c3cccs3)c21 (stereo not drawn)	?
COc1cc(NC(=S)Nc2ncccc2C)cc(OC)c1OC	-19%
CCc1cc(C(=O)NCC2CCCO2)sc1C (stereo not drawn)	-2%
CCOC(=O)COc1nc(-c2ccco2)cc(-c2ccco2)c1C#N	0%
Cc1c(C(=O)/C=C/N(C)C)nnn1-c1ccc(Cl)c(Cl)c1	-13%
Cc1ccc(C)c(CN2CCN(c3ncccn3)CC2)c1	-13%

(cont.)
SMILES	VDR inh
COc1ccccc1CNc1ncncc1-c1ccoc1	?
Cc1onc(-c2ccccc2Cl)c1C(=O)OCC(=O)c1ccc2c(c1)OCCO2	-1%
Cc1cc(NC(=O)CN2CCC(O)CC2)nc2c1c(=O)oc1ccccc12	2%
CC(C)[C@H](CN1CCC[C@H]1CN1C(N)=NC[C@@H]1Cc1ccccc1)N1C[C@@H](Cc2ccccc2)N(CCc2ccc(Cl)c(Cl)c2)C1=N	2%
CCOc1cc(N2CCOCC2)c(OCC)cc1NC(=O)CSc1nccc(C)n1	2%
COc1ccc2c(CC(=O)OCC(=O)c3ccccc3OC)coc2c1	-9%
CCOCCCNC(=O)C1CCCCN1S(=O)(=O)c1ccc(F)cc1 (stereo not drawn)	-10%
CCc1ccc(NC(=O)c2cnc3sc(N4CCCC4)nn3c2=O)cc1	-9%
O=C(/C=C/c1c(F)cccc1Cl)Nc1nn[nH]n1	-8%
O=S(=O)(CCSc1ccccn1)c1nc2ccccc2s1	?
O=c1cc(N2CCC(Cc3ccccc3)CC2)[nH]c(=O)n1C1CCCCC1	0%
Cc1cccc(NC(=O)CSc2nc3c(c(=O)[nH]2)CCC3)c1C	-17%
O=[N+]([O-])c1ccc(CSc2nnc(-c3cnccn3)o2)cc1	2%
O=C(Nc1cccc(F)c1)c1ccc(Cn2cc([N+](=O)[O-])cn2)o1	-27%
Cc1ccc(NC(=S)N/N=C/c2cccn2Cc2ccccc2F)cc1	15%
Cc1cc(C)n(-c2ccc(F)cc2CN2CCN(C3CCCC3)C(CCO)C2)n1 (stereo not drawn)	7%
CC12CCC3c4ccc(O)cc4CCC3C1CC(=NO)C2O (stereo not drawn)	-8%
O=C1[C@H]2[C@H](ON3CCCC[C@H]23)C(=O)N1c1cccc(C(F)(F)F)c1	1%
CC1(C)Cc2c(sc3c2c(=N)n(Cc2ccco2)c(=O)n3CC(=O)Nc2ccc(Cl)cc2)CO1	-7%
O=C(c1cccs1)N1CCCC1	18%
CC(C)(C)C(=O)Nc1c(Br)c(C2CC2)nn1-c1ccccc1	-8%
CN(c1ccccc1C(=O)O)S(C)(=O)=O	-8%
COc1ccc(S(=O)(=O)N2CCC(C(=O)N3CCN(C)CC3)CC2)cc1Cl	0%
Cc1cc(Br)ccc1NC(=O)C1C2CCC(O2)C1C(=O)O (stereo not drawn)	-9%
O=C(Nc1ccc(N2CCCC2)cc1)c1cccc(Cl)c1Cl	-1%
O=C(Nc1ccc(CN2CCOCC2)cc1)c1ccc(-c2cccc(Cl)c2)o1	9%
COc1ccc(-c2nc3ccccc3o2)cc1NC(=O)CSc1ccc(Cl)cc1	-1%&-2%
COc1ccc(CC(=O)NCc2n[nH]c(=S)n2-c2cccc(Cl)c2)cc1	0%
Cc1ccc(CCN2CC(C(=O)NCCCN3CCCCC3)CC2=O)cc1 (stereo not drawn)	-12%
COc1ccc(-c2ccc(SCC(=O)Nc3nnc(C)s3)nn2)cc1	-23%
Cc1ccccc1Oc1nc2ccccc2n2cnnc12	9%
CCn1c2ccccc2c2cc(NS(=O)(=O)c3ccc(C)cc3)ccc21	-5%
COCCNC(=O)c1ccc(C2SCC(=O)N2CCc2ccccc2)cc1 (stereo not drawn)	0%
Cc1ccc2nc3c(cc2c1)c(NC(=O)C1CCCO1)nn3CC(C)C (stereo not drawn)	1%
CC1Cc2cc(S(=O)(=O)CCC(=O)Nc3ccc(F)cc3Cl)ccc2N1C(=O)C1CC1 (stereo not drawn)	-7%
CN(CC(=O)Nc1cccc(F)c1)C(=O)Cn1c(=O)cnc2ccccc21	4%
CCSc1nc2c(cnn2-c2ccccc2)c(=O)n1N	-21%
COc1ccc(Cn2nnnc2C(c2cc3ccc(OC)cc3[nH]c2=O)N2CCC(C)CC2)cc1 (stereo not drawn)	-3%
CC(C)(C)OC(=O)N1CCC(c2c(C(=O)NC3CCCCC3)cnn2-c2ccc(F)cc2F)CC1	21%
Cc1ccc(CN2CCC(Oc3ccc(C(=O)NCc4ccccn4)cc3)CC2)o1	-3%
CCN(C[C@H]1N[C@@](C)(C(=O)OC)[C@H]2C(=O)N(C)C(=O)[C@@H]12)C(=O)c1ccc(C)cc1	1%
Cc1c(NC(=O)CSc2nnc(COc3ccccc3)n2-c2ccccc2)c(=O)n(-c2ccccc2)n1C	-4%
COc1cc(OC)c(C2=NOC(C(=O)Nc3c(C)n(C)n(-c4ccccc4)c3=O)C2)cc1Cl (stereo not drawn)	1%
COc1cc(NC(=O)C2CCCCC2)c(OC)cc1NC(=O)CN1CCCCC1	18%
CN(C)c1cc2c3ccccc3n(C)c2cc1N	-9%
Cc1nc2c3ccccc3nc(SCC(=O)N3CC(C)CC(C)C3)n2n1 (stereo not drawn)	-23%
Cc1ccc(OCc2nnc(SCC(=O)Nc3ccc4c(c3)OCCO4)n2Cc2ccco2)cc1	0%
CN(CCc1ccccc1)C(=O)c1cc(COc2ccc(F)cc2Cl)on1	-8%
CCOc1cccc(C(=O)N2CCC(c3nc4ccccc4s3)CC2)c1	7%
Cc1ccc(C(=O)COC(=O)CCC(=O)Nc2cc(Cl)ccc2Cl)cc1[N+](=O)[O-]	11%
COc1ccc2[nH]c(C)c(CCNC(=S)Nc3cc(C)cc(C)c3)c2c1	2%
CC(C)C[C@@H](CN)NC(=O)c1nc[nH]c1C(=O)N[C@@H](Cc1ccccc1)C(=O)CNC[C@H](C)NC(=O)c1nc[nH]c1C(=O)N[C@@H](CC(C)C)C(=O)O	-22%
COc1ccc(-c2noc3c2-c2nc(C4CCCCC4)sc2CC3)cc1	-18%
CCOC(=O)c1ccc(NC2=CC(c3ccc(Br)cc3)N(c3ccc(C(=O)OCC)cc3)C2=O)cc1 (stereo not drawn)	-6%
O=C(NCCN1CCOCC1)c1ccc(-c2ccccc2)cc1	-26%
COc1ccc(C(=O)CCC(=O)Nc2ccc(N3CCCCC3)cc2)cc1OC	6%
Cc1cccc(NC(=O)[C@@H]2CCCN2C2=NS(=O)(=O)c3ccccc32)c1C	-1%

The list is partial; count on the stated rates, not on these rows.
